Vaccinia mCherry: qHTS for Stage-Specific Inhibitors of Vaccinia Orthopoxvirus: mCherry Reporter Primary qHTS; Vaccinia virus mCherry reporter infection, fluorescence; about a quarter of the inactives have no number; Potency, µM (highest dose often 36.5 µM), inactives show top-dose activity change, negative = inhibition, usual class: inhibitors; 310,000 tested, 0.63% active; AID 720579, 2013; active = well fitted inhibition curve with a large enough effect; inconclusive = small, poorly fitted or top-dose-only effect; inactive = no such curve, though single readings can be large or run the other way; tested in A549 cells; note: nearly all actives have a fitted effect of over 35% in size; inactives centre near -10
Vaccinia Venus: qHTS for Stage-Specific Inhibitors of Vaccinia Orthopoxvirus: Venus Reporter Primary qHTS | Potency, µM (titrated, usually from 36.5 µM), without a hit: at the top dose activity change, negative = inhibition, hits mostly inhibitors | AID 720580, 2013 | Vaccinia virus Venus reporter expression, fluorescence | 330,000 tested, 0.46% active; active means well fitted inhibition curve with a large enough effect; inconclusive means small, poorly fitted or top-dose-only effect; inactive means no such curve, though single readings can be large or run the other way; tested in A549 cells; note: nearly all actives have a fitted effect of over 30% in size; inactives centre near -10
* marks the source's active call; other numbers are inactive results; i = inactive; ? = inconclusive; · = not tested or not shown; [ ] = another dose, or the depositor's remark. % is set by controls: 0 for no effect and ±100 for the full control effect; potency is the fitted concentration of half-maximal effect.

SMILES	Vaccinia mCherry	Vaccinia Venus
Cc1cc(C)cc(NC(=O)CN(c2cc(C(F)(F)F)ccc2Cl)S(=O)(=O)c2ccccc2)c1	5%	-6%
CCOC(=O)CCC(NC(=O)c1ccc(Nc2nc3ccccc3nc2C(=O)OCC)cc1)C(=O)OCC (centres undefined)	-2%	-11%
COc1cc(CN2CCCCC2C(=O)Nc2ccc(Oc3ccccc3)nc2)ccc1O (centres undefined)	0%	-13%
O=C(CSc1oc(-c2ccc(F)cc2)nc1S(=O)(=O)c1ccc(Cl)cc1)c1ccccc1	-25%	-21%
Cc1cc(C)nc(SCc2nnc(SCC#N)n2-c2cccc(Cl)c2)n1	-25%	-13%
O=C(NCc1ccco1)C(c1ccncc1)N(C(=O)Cc1cccs1)c1ccccc1 (centres undefined)	i	-7%
CCCN1CCN(CCCNC(=O)c2cc3c(Cl)nc4ccccc4c3s2)CC1	12%	1%
COc1cc([N+](=O)[O-])cc(/C=N/NC(=O)C(C)Nc2cccc(C)c2)c1O (centres undefined)	-23%	-10%
CCCCn1cnc2c([nH]c3cc(OC)ccc32)c1=O	·	?
CCC(C)(C)N(C(=O)CCC(=O)Nc1cc(C)on1)C(C(=O)NC(C)(C)C)c1ccc(OC)cc1 (centres undefined)	-7%	-9%
COc1ccc(S(=O)(=O)Nc2ccccc2OC)cc1NC(=O)CC1CC2CCC1C2 (centres undefined)	-23%	?
CCOC(=O)CN1C(=O)c2cccnc2Oc2ccccc21	-3%	-9%
O=NN(CCCl)C(=O)NCCc1cccc[n+]1[O-]	-10%	-5%
COc1ccc(-c2nnc(SC(C)C(=O)NNC(=O)c3ccc(C)cc3)o2)cc1 (centres undefined)	-8%	-10%
CCN1CCN(c2nc(Nc3cccc(OC)c3)nc(N)c2[N+](=O)[O-])CC1	?	?
CCOc1ccccc1CNC(=O)c1cc2c(=O)n(Cc3ccccc3)ccc2nc1C	-14%	-17%
COc1ccccc1NC(=O)CSc1nnc(NC(=O)NC2CCCCC2)s1	5%[7.34 µM]	-2%[7.34 µM]
CCNS(=O)(=O)c1ccc(CCC(=O)N2CCCC2)cc1	-1%	-12%
Cc1sc(NC(=O)c2cccs2)c(C(=O)OC(C)C)c1C	-2%	-2%
CCOC(=O)c1c(NC(=O)c2ccc(N3C(=O)[C@@H]4[C@H](C3=O)[C@H]3C=C[C@@H]4C3)cc2)sc2c1CC(C)CC2 (some centres undefined)	i	2%

3 successive compounds already listed:
SMILES	Vaccinia mCherry	Vaccinia Venus
Cc1cc(C)cc(NC(=O)CN(c2cc(C(F)(F)F)ccc2Cl)S(=O)(=O)c2ccccc2)c1	5%	-6%
CCOC(=O)CCC(NC(=O)c1ccc(Nc2nc3ccccc3nc2C(=O)OCC)cc1)C(=O)OCC (centres undefined)	-2%	-11%
COc1cc(CN2CCCCC2C(=O)Nc2ccc(Oc3ccccc3)nc2)ccc1O (centres undefined)	0%	-13%

The list continues:
SMILES	Vaccinia mCherry	Vaccinia Venus
CC(C)C[C@H]1CN([C@@H](Cc2ccccc2)CN2CCC[C@@H]2CN2C(=O)C(=O)NC[C@@H]2Cc2ccc(O)cc2)C(=O)C(=O)N1CC1CCCCC1	-3%	-5%
CCCCc1nc(N2CCOCC2)c(C#N)c2c1COC(C)(C)C2	·	-9%
O=C(NCCN1C(=O)S/C(=C\c2cccs2)C1=O)c1ccco1	i	0%
O=C(C1CCC1)N1CCN(c2cccc(C(F)(F)F)c2)CC1	i	-7%
COc1ccccc1CNC(=O)COC(=O)c1n[nH]c2ccccc12	-22%	?
O=C(C1CCN(CCCc2ccccc2)CC1)N(CCc1ccccc1)Cc1ccccc1	?	?
COC(=O)c1c(N)[nH]c(C(=O)c2ccccc2)c1-c1ccc(Cl)cc1	?	?
O=C(CCC(=O)N1CCCCC1)Nc1ccc(Cl)c(Cl)c1	i	-12%
C#Cc1ccc([C@H]2C=C(C(=O)N3CCOCC3)O[C@@H](OCc3ccc(CO)cc3)C2)cc1	-12%	-2%
CCCCN(C)C(=O)c1ccc2c(c1)N(CC)C(=O)c1ccccc1S2(=O)=O	8%	2%

Entries of single compounds, quoted from the list.
`O=C(CCC(=O)N1CCCCC1)Nc1ccc(Cl)c(Cl)c1` across the screens: Vaccinia mCherry: i; Vaccinia Venus: -12%
`O=C(C1CCN(CCCc2ccccc2)CC1)N(CCc1ccccc1)Cc1ccccc1` across the screens: Vaccinia mCherry: ?; Vaccinia Venus: ?

Carrying on:
SMILES	Vaccinia mCherry	Vaccinia Venus
O=c1c2ccccc2nc(N/N=C/c2ccc(O)cc2)n1O	·	-9%
COc1ccc(S(=O)(=O)N(C)CC(=O)NCc2ccco2)cc1	-12%	-6%
CCC(=O)N1CCc2cc(S(=O)(=O)CCC(=O)N(C)c3ccc(OC)cc3OC)ccc21	-15%	-4%
CCN1C(N(C)CCc2cccs2)=N[C@@H](c2ccccc2)C(C(=O)OC)=C1C	-20%	-15%
COC1=CC=C2[C@H]3Cc4ccc(OC)c5c4[C@@]2(CCN3C)C1O5 (some centres undefined)	i	-12%
CCOc1ccc(/C=N/NC(=O)c2nnn(-c3nonc3N)c2-c2ccc(OCC)cc2)cc1	-14%	-10%
O=S1(=O)CC(N2CC=CC2)CN1Cc1cn(Cc2cccc(C(F)(F)F)c2)nn1 (centres undefined)	14%	4%
Cn1c(O)c(C(=Nc2ccccc2)SCc2ccccc2Cl)c(=O)n(C)c1=O	-28%	-29%
COc1cccc(-c2nn(C)c3sc(C(=O)NCc4ccc(OC)cc4OC)cc23)c1	?	-27%
CCN(CC)S(=O)(=O)c1ccc(C(=O)NCCSc2c(-c3ccc(OC)cc3)[nH]c3ccccc23)cc1	-19%	-17%

2 compounds drawn at random from those above:
SMILES	Vaccinia mCherry	Vaccinia Venus
CCN1C(N(C)CCc2cccs2)=N[C@@H](c2ccccc2)C(C(=O)OC)=C1C	-20%	-15%
COc1ccc(S(=O)(=O)N(C)CC(=O)NCc2ccco2)cc1	-12%	-6%

Further compounds follow:
SMILES	Vaccinia mCherry	Vaccinia Venus
CCCCCCCCCc1ccc(O)cc1	16%	0%
Cc1ccc(Nc2cc(C)nc(N3CCOCC3)n2)cc1	i	-26%
CCOC(=O)c1c(C)oc2nc(C)nc(NCc3ccccc3OC)c12	-17%	-19%
O=C(CNC(=O)OCc1ccccc1)NC(Cc1cnc[nH]1)C(=O)O (centres undefined)	-13%	-5%
COC(CNC(=O)c1cnn2c(C)c(Cc3ccccc3)c(C)nc12)OC	-20%	-15%
O=C(CCc1nnc(CCC2CCCCC2)o1)NCCn1cccn1	?	-4%
CCC1(C)CN=C(c2ccccc2)NC1 (centres undefined)	-13%	-5%
Cc1cc(=O)oc2cc(OCC(=O)OCC(=O)NC(C)C)ccc12	i	-5%
c1ccc2c(c1)nc1n2CCN1	·	-19%
CC(C)(C)c1ccc(OCC(=O)N(Cc2ccco2)Cc2ccccc2F)cc1	-5%	-2%
COc1ccc(CCNC(=O)c2cc3c(C)nccc3[nH]c2=O)cc1OC	i	-13%
O=c1[nH]ncc(NCCCO)c1Cl	-8%	-8%
COc1cccc(-c2cc(C(=O)NCC3CCCO3)c3ccccc3n2)c1 (centres undefined)	i	-8%
O=C(CN(c1cccc(Cl)c1)S(=O)(=O)c1ccc(Cl)cc1)NCc1ccccn1	-12%	-26%
COc1ccc(CCNC(=O)c2ccc(N3CCCC3=O)cc2)cc1	-13%	-5%
CCc1ccccc1N(C)C(=O)c1nn(C)c2c1CSc1ccccc1-2	-9%	-9%
COc1cccc(NC(=O)C2(C)CCN2C(=O)Cc2ccc(C(C)C)cc2)c1 (centres undefined)	3%	2%
CC(C)C(=O)N1CCN(c2ccccc2NC(=O)c2ccc(Br)o2)CC1	i	-14%
O=[N+]([O-])c1cccnc1Oc1cccnc1	i	-12%
CCOc1ccc2[nH]c(=O)c(CN(Cc3ccc(F)cc3)C(=O)c3ccco3)cc2c1	·	?
COC(=O)c1ccc(NC(=O)c2ccc(F)cc2)o1	·	13%
O=C(NCCOc1ccccc1)C1CCCN1C(=O)c1cccs1 (centres undefined)	i	-9%
CC1(C)OC(=O)NC1c1ccccc1 (centres undefined)	-27%	-8%
COc1cccc(/C=C/C(=O)Oc2ccc(C(=O)c3ccc(F)cc3)cc2)c1	-8%	-1%
CC/C(=N/Nc1ccccc1)c1cnnc(-c2ccccc2)n1	-15%	2%
CCOC(=O)C1(C)CCCN(C(=O)c2ccc(OC(F)F)cc2)C1 (centres undefined)	38%[activator]	1%
CCOC(=O)c1c(CSc2ccccc2)n(C)c2cc(Br)c(OCC(O)CNC(CO)(CO)CO)cc12 (centres undefined)	-25%	?
Nc1c(-c2cccc(Cl)c2)cnn1-c1ccccc1	-12%	-12%
Cn1c(=O)c2c(ncn2CC(=O)OCC(=O)NCc2ccccc2Cl)n(C)c1=O	-10%	-8%
COc1cccc(-c2nnc(-c3ccc4ccccc4c3)o2)c1	-18%	-2%
Cc1cccc(Cn2nc(C)c(NC(=O)c3ccc(F)cc3)c2C)c1	-12%	-1%
COC(=O)c1cc(Nc2nc3ccccc3nc2NS(=O)(=O)c2ccc(C)cc2)ccc1Cl	?	?
CCOC(=O)c1ccc(N2C(=O)CC(N3CCC(O)(c4ccc(Br)cc4)CC3)C2=O)cc1 (centres undefined)	·	-17%
COc1ccc(-c2nc(C)sc2C)cc1	i	-16%
S=C(NCc1ccc(Cl)c(Cl)c1)NCc1ccco1	-13%	-12%
CCn1c(SCC(=O)Nc2ccc(S(N)(=O)=O)cc2)nnc1-c1cccc(OC)c1	·	-4%
COCCN(C(=O)CSc1nc2ccccc2s1)c1c(N)n(Cc2ccccc2)c(=O)[nH]c1=O	-7%	8%
COc1ccc(CN2CCc3ccccc3C2)c(OC)c1	-14%[7.34 µM]	1%[7.34 µM]
COc1cccc(C2=Cc3ccc(F)cc3C(CC(C)=O)N2c2ccc(-c3cc(OC)c(OC)c(OC)c3)cc2)c1 (centres undefined)	-1%	-1%
Cc1cc(=O)oc2cc(NC(=O)C(C)Oc3ccc(F)cc3)ccc12 (centres undefined)	-3%	-14%
CC1CCCC(NC(=O)c2ccc3c(c2)OCO3)C1C (centres undefined)	-13%	-2%
CC(C)c1ccc(NC(=O)CSc2ncc3c(n2)-c2ccccc2N(C)S3(=O)=O)cc1	-16%	-2%
Cc1nc2cccnc2n1C1CCN(S(=O)(=O)c2ccc(Cl)cc2)CC1	-13%	-13%
O=C(Nc1ccc(Cl)c(Cl)c1)Nc1nc(-c2ccccc2)cs1	?	-27%
CC1(C)C(=O)NCCN1C(=O)c1ccc2nc(Cc3ccccc3F)oc2c1	-4%	-17%
CCCCc1c(O)nc(SCC(=O)c2ccccc2)n(-c2ccccc2C)c1=O	-13%	-2%
COc1ccc(N2CCN(C(=O)c3ccccc3F)CC2)c([N+](=O)[O-])c1	?	-3%
Cc1ccc(C(O)c2ncc(-c3ccc(C(F)(F)F)cc3)[nH]2)cc1F (centres undefined)	-9%	?
CC(C)Oc1ccc(C(=O)NCCNC(=O)c2ccco2)cc1	-11%	-2%
O=C(Nc1ccc2c(c1)OCO2)c1cccn(Cc2ccc(F)cc2)c1=O	-19%	2%

Reformatted in markdown: entries from further up.
| Molecule | Vaccinia mCherry | Vaccinia Venus |
| --- | --- | --- |
| CCCCc1c(O)nc(SCC(=O)c2ccccc2)n(-c2ccccc2C)c1=O | -13% | -2% |
| Cc1ccc(C(O)c2ncc(-c3ccc(C(F)(F)F)cc3)[nH]2)cc1F (centres undefined) | -9% | ? |
| CC(C)Oc1ccc(C(=O)NCCNC(=O)c2ccco2)cc1 | -11% | -2% |

Carrying on:
SMILES	Vaccinia mCherry	Vaccinia Venus
O=C(NC1CCCC1)C(c1ccco1)N(C(=O)c1ccco1)c1ccc(F)cc1 (centres undefined)	-19%	-14%
CCOC(=O)c1[nH]c2ccccc2c1NC(=O)C1CCCC1	i	0%
CCc1ccc(-n2c(SCC(=O)c3ccc4c(c3)NC(=O)CO4)nc3ccccc3c2=O)cc1	-2%	-8%
Cc1ccc(-c2cc3nc(-c4ccccc4)cc(NCCCO)n3n2)cc1	?	?
CCCCc1ccc(NC(=O)c2ccc(=O)n(Cc3cccc(C)c3)c2)cc1	-21%	-14%
CN(Cc1ccccc1)C(=O)c1[nH]cnc1C(=O)NC1CCN(C(=O)OC(C)(C)C)CC1	?	-16%
CC(=O)Nc1ccc(S(=O)(=O)N2CCN(C(C)CCc3ccccc3)CC2)cc1 (centres undefined)	-27%	-29%
CCOC(=O)c1cc2cc(OC)ccc2n1C1CCN(Cc2ccccc2)CC1	-10%	-13%
CN(C)CCN(Cc1ccccc1)S(=O)(=O)c1csc(C(N)=O)c1	-10%[7.34 µM]	2%[7.34 µM]
COc1ccc(CC(=O)NNC(=O)c2ccc(Br)s2)cc1OC	i	-1%
Cc1ccc(C)c(NCCCCCCCC(=O)O)c1	16%	1%
COc1cc(C(=O)O)nc2ccc([N+](=O)[O-])cc12	2%	-1%
O=C(C1CCC1)N1CCc2cc(S(=O)(=O)NCCN3CCN(c4ccccc4F)CC3)ccc21	?	?
Cc1cccc(Nc2ncc3c(n2)CC(C)CC3=O)c1 (centres undefined)	·	-17%
OC(c1ccc(F)cc1)c1nc(-c2ccncc2)cs1 (centres undefined)	17%	-8%
c1ccc(CNc2nc(NCC3CC3)nc3cc(-c4ccccc4)sc23)cc1	?	?
O=C(CSc1nnc(NC2CCCCC2)s1)Nc1ccc(N2CCOCC2)cc1	-13%	-11%
COc1cc(-c2cc(C(=O)OCC(=O)NC3CC3)c3ccccc3n2)cc(OC)c1OC	-3%	6%
Cc1ccc(NC(=O)CSc2nc(-c3ccco3)cc(C(F)(F)F)n2)cc1C	-30%	-22%
CCN1CCN(C(=O)C2CCN(Cc3nc(-c4cccc(Cl)c4)oc3C)CC2)CC1	-14%	-11%

Hits appear at their usual frequency; any-hit rate near 0.82%.
